Bioassay records: PubChem, several laboratories
Env fusion inh – blocks HIV Env-driven cell-cell fusion | HeLa-JRFL Env/CEM21 cell fusion, luciferase | inhibition, % at 12.3 µM | hit rate 1.1% among 360,000 | AID 651610;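 active = mean replicate inhibition score of at least 50 and every replicate individually at or above 50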;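 also: 0% = plate neutral controls and 100% = maraviroc near 300 nM; one replicate is shown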
CSC inhib – blocks cancer stem cells; inhibition, % at 7.5 µM; cancer stem cell-like cells viability, luminescence; hit rate 1.1% among 300,000; AID 2717;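 active = mean at 75% or more and at least half the replicates too; tested in HMLE shEcad cells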;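 also: 0% = median of negative and 100% = median of positive control wells; the first replicate is given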
Rce1 inh – blocks yeast Ras-converting enzyme | hit rate 0.27% among 290,000 | AID 2563 | calls only | yeast membranes, quenched prenylated peptide cleavage fluorescence;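 active = fall in fluorescence gain of 50% or more versus controls, with final raw signal at or below 3038400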;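 also: plate controls were neutral control wells for no effect and wells lacking membranes for full effect; tested at 10 µM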
Target sequence (Q03530 whole entry, looked up): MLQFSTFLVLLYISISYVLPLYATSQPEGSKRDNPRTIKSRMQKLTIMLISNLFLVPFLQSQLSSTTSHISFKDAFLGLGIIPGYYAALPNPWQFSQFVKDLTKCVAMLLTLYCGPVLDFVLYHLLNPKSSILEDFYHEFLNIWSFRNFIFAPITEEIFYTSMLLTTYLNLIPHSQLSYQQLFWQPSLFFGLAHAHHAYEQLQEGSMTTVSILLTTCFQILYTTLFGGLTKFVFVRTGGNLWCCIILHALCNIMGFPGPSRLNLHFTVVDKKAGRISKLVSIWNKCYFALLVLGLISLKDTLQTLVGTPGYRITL
PABP polyA inh – blocks human PABP binding to poly(A) RNA; inhibition, % at 35 µM; hit rate 1% among 290,000; fluorescence polarization; AID 2014; P11940;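 active = 50% or more with normal probe brightness, or confirmed in later tests; about a fifth of its hits are not listed in these tables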;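 also: calls also rest on retests at 20 µM and on dose response follow-up; controls were probe without protein and protein plus probe with vehicle; some compounds called inactive have numbers as strong as hits; many hits fall short of the cut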
Target sequence (P11940 whole entry, looked up): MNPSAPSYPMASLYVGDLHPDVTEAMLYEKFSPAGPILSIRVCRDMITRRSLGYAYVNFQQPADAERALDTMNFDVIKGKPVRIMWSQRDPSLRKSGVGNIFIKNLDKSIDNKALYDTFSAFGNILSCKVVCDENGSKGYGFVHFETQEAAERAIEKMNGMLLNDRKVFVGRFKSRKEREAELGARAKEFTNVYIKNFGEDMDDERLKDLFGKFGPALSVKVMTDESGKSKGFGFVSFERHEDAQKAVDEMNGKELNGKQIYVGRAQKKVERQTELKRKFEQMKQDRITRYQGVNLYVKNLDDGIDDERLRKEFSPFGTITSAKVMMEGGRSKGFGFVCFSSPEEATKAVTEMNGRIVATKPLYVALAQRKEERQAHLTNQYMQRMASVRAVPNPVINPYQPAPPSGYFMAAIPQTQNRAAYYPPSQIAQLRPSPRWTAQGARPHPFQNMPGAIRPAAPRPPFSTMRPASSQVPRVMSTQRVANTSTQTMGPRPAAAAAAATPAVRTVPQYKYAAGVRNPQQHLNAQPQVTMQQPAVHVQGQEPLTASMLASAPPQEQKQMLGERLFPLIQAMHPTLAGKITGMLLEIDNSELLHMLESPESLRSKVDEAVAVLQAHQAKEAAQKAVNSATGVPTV
MT1-MMP act inh – MT1-MMP (human) activation inhibition. AID 651647. HT1080 RFP-PRO-GFP cells, GFP/RFP ratio fluorescence, overnight; percent of plate control window, DMSO zero. hit rate 0.061% among 360,000. GFP/RFP ratio change, % at 20 µM. P50281;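 active = GFP/RFP ratio change of at least 30% with cell ATP level not reduced by more than half and red fluorescence within 50% of control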; also: strong numbers were not always called active
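system = RFP-PRO-GFP reporter HT1080 cells | dosing = 20 µM single dose, 1% DMSO | timing = overnight cell settling, then overnight compound exposure, 37 °C, 5% CO2 | read-out basis = GFP/RFP fluorescence ratio | controls = DMSO and RFP-L50D-GFP cell wells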
Yeast UUG start – alters start codon recognition fidelity in yeast; S. cerevisiae UUG-firefly luciferase reporter, luminescence/redox ratio; hit rate 0.13% among 350,000; AID 602363; activity score, % at 18.7 µM;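 active = replicate mean at a twofold rise or more, about +100% in these data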;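 also: firefly luciferase made from a UUG start codon reports start codon fidelity; reporter light over untreated wells divided by growth signal over untreated wells; some hits fall short of that in this replicate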
eIF4H inh – inhibitors of RNA binding by human eIF4H; Q15056; inhibition, % at 35 µM; hit rate 0.94% among 290,000; eIF4H fluorescence polarization binding assay; AID 2012;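 active = 50% or more with normal probe brightness, or confirmed in later tests; about a fifth of its hits are not listed in these tables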;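 also: calls also rest on retests at 20 µM and on dose response follow-up; 0% = protein and probe with vehicle and 100% = probe without protein; strong numbers were not always called active; many hits fall short of the cut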
eIF4H inh retest – also measured in eIF4H inh; calls as there; inhibition, %; compound at 20 µM; confirmation average;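 mean of two retest wells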
PABP polyA inh retest – also measured in PABP polyA inh; calls as there; inhibition, %; compound at 20 µM; confirmation repeats;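 mean of two retest wells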
MT1-MMP act inh RFP – recorded beside MT1-MMP act inh, whose call it bears; RFP signal change, %; measured here: RFP expression control read;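 0 = vehicle wells; hits needed this value within 50% of zero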
The depositor's hits bear a star; i = inactive; / = not tested or not shown; & = joins results of further samples; [ ] = dose if it differs, or a comment.

SMILES	Env fusion inh	CSC inhib	Rce1 inh	PABP polyA inh	MT1-MMP act inh	MT1-MMP act inh RFP	Yeast UUG start	eIF4H inh	others
Cc1ccc(CN(C)C[C@@H]2OCc3cnnn3CCCC(=O)N([C@H](C)CO)C[C@H]2C)cc1	17	/	/	/	0	2	-12&4	/
CCOC(=O)c1ccc(NC(=O)CN2C(=O)CSCC2=O)cc1	-22	11	/	-2	-3	4	/	5
CN(C)C(=O)c1ccc(NC(=O)c2cc(-c3ccco3)nc3ccccc23)cc1	1	-3	i	40*	-3	5	-13	77*	eIF4H inh retest=79*;PABP polyA inh retest=75*
CC(=O)NC12CC3CC(C1)CC(C(=O)OCC(=O)NC(=O)c1cccn1C)(C3)C2	-54	-12	i	6	-4	2	-9	-1
CC1(C)N=C(N)N=C(N)N1c1ccc(CCCCc2ccccc2)cc1	20	/	/	/	7	-28	-12	/
Cc1ccc(CNc2ccc3c(c2)ncn3C(C)(C)C)cc1	-28	5	i	-5	8	0	/	1
Cc1ccsc1C1NC(=O)c2ccccc2N1 (configuration not stated)	/	/	i	3	0	7	-20	2
O=S1(=O)OCCC(c2ccccc2)N1Cc1ccccc1 (configuration not stated)	-1	8	i	-2	0	1	-12	-5
O=C(O)C1CCN(C(=O)c2ccccc2C(=O)N2CCC(C(=O)O)CC2)CC1	/	8	i	-13	1	2	-3	-3
C#CCOCCOCCOCCNc1nc(N2CCN(C(=O)[C@H]([C@@H](C)O)n3cc(CCCCN)nn3)CC2)nc(N2CCN(C(=O)[C@H](CCCCN)n3cc(CCCC)nn3)CC2)n1	-6	-29	/	/	-2	3	4	/
CC(=O)C1=C(O)C(=O)N(CCN2CCOCC2)C1c1ccc(N(C)C)cc1 (configuration not stated)	/	-8	i	/	3	5	/	/
COc1cccc(C(=O)NCC(=O)OCC(=O)Nc2cc(OC)c([N+](=O)[O-])cc2C)c1	/	3	i	-11	2	4	/	-10
Cc1nc(C)n(C(C)CNS(=O)(=O)c2ccc(Cl)cc2)n1 (configuration not stated)	0	0	i	1	-2	2	-11	-5
C=CCNC(=O)[C@@H]1CSC2c3ccc(OC)c(OC)c3C(=O)N21 (some centres not stated)	3	-12	i	3	13	5	-14	11
CC1(C(=O)Nc2nnc(SCc3ccccc3)s2)Cc2ccccc2C(=O)O1 (configuration not stated)	16	0	i	-11	3	1	-8	-4
CCOC(=O)C1C(=O)CC(C)(O)C(C(=O)OCC)C1c1ccc([N+](=O)[O-])cc1 (configuration not stated)	9	-7	i	-6	-2	1	/	-3
CC1CCCCC1NC(=S)Nc1cccc(S(=O)(=O)N(C)C)c1 (configuration not stated)	0	-4	i	-1	0	-4	/	6
CCOC(=O)c1ccc2c(c1)C(=O)N(C1CCCCC1)C2=O	/	6	i	-13	-1	-4	/	4
CCCCCC(=O)N1C[C@H](n2cc(COC(=O)c3ccccc3)nn2)[C@@H](O)C[C@@H]1c1ccc(C)cc1	-3	/	/	/	-1	-5	2	/
CCCCNC(=O)C(C)N(CCN(C)C)C(=O)CCCN1C(=O)NC(c2ccc(Cl)cc2)C(C(=O)OCc2ccccc2)=C1C (configuration not stated)	0	/	/	/	0	0	-3	/
COCCNC(=O)c1cc(-c2ccc(-c3ccccc3)cc2)nc2ccccc12	-48	41	i	-2	3	-2	-21	0
O=C(CN1C(=O)C2(OCCCO2)c2ccccc21)NCCc1ccccc1	-43	21	i	2	4	1	18	0
Nc1nc(NCCOCCO)nc(N2CCCCCC2)c1[N+](=O)[O-]	4	-12	i	-4	-1	-6	/	-3
O=C(OCC(=O)N1CCCc2ccccc21)c1ccc(S(=O)(=O)C(F)F)cc1	5	-10	i	/	4	2	/	/
COC(=O)c1ccc(SC)cn1	0	-6	i	8	1	2	/	-10

Continued:
SMILES	Env fusion inh	CSC inhib	Rce1 inh	PABP polyA inh	MT1-MMP act inh	MT1-MMP act inh RFP	Yeast UUG start	eIF4H inh	others
CCN(CC)S(=O)(=O)c1ccc(N(C)C)c(NC(=O)CC(NC(C)=O)c2ccccc2)c1 (configuration not stated)	/	-11	i	-22	4	4	-1	-12
COc1cc(NC(=O)c2oc3ccccc3c2C)ccc1NC(=O)c1ccco1	13	/	i	1	-1	-4	14	-3
N#CC(C(N)=O)=C1CCCCC1	3	-10	i	-2	-5	0	2	-3
CC(C)(C)c1cc(C(=O)C[n+]2ccc(C(=O)NCCCO)cc2)cc(C(C)(C)C)c1O	-1	-18	i	-1	5	0	-5	6
CC#CC(=O)N1CCC(n2nccc2NC(=O)CCc2ccccc2)CC1	-15	/	/	/	4	0	-8	/
Cc1ccc(C)c(CSc2ccc3nnc(-c4ccccn4)n3n2)c1	14	-8	i	-4	0	-9	-1	-11
CC(C)(C)OC(=O)N1CCC(c2c(C(=O)N3CCN(C(=O)c4ccco4)CC3)cnn2-c2ccc(F)cc2)CC1	0	-1	i	-10	-5	-3	-20	-4
O=C(COC(=O)C1CCCC1)NCc1ccc(Cl)cc1	15	-2	i	-7	2	4	/	-8
COc1ccc(C2C(C#N)=C(N)Oc3cc(N)ccc32)cc1OC (configuration not stated)	-80	-3	i	11	4	8	-8	-1
CCOC(=O)c1c(C)[nH]c(C)c1C(=O)COC(=O)/C=C/c1ccccc1[N+](=O)[O-]	/	-1	/	/	2	-6	0	/
CN(C)c1cc(-c2ccc([N+](=O)[O-])cc2)oc(=O)c1Cl	-18	35	i	13	-14	-1	/	18
C[C@@H]1CN([C@H](C)CO)C(=O)c2cc(Br)cnc2O[C@@H]1CN(C)C(=O)Nc1cccc(F)c1	-4[16.7 µM]	/	/	/	0	4	-8&-4	/
CC1(C)C2CC=C(/C=N/NC(=O)c3ccccc3O)C1C2 (configuration not stated)	14	-3	i	4	5	2	-3	-5
CCc1ccc(NC(=O)C2CCN(S(=O)(=O)c3ccc4[nH]c(=O)ccc4c3)CC2)cc1	20	/	i	-11	1	2	2	-17
CCOc1cc(C=O)ccc1OCc1cc(=O)n2cc(C)ccc2n1	2	-1	i	-2	4	1	-2	6
Cn1cc(CN2CCC(C(=O)N3CCCCC3)CC2)c(-c2ccccc2F)n1	-5	-3	i	3	/	/	1	0
O=C(c1cn(-c2ccccc2)nc1-c1cccnc1)N1CCN(S(=O)(=O)c2ccccc2F)CC1	/	5	/	/	-4	-1	-14	/
COc1cc(C(=O)N2CCCCC2c2cc(C(=O)Nc3ccccc3)no2)cc(OC)c1C (configuration not stated)	-8	/	/	/	-6	-10	-17	/
COc1cccc(NC(=O)N2CCC(N3CCCCC3)CC2)c1	/	-3	i	-11	2	4	6	6
COCCN(CC(=O)Oc1ccccc1P(=O)(OC)OC)Cc1ccccc1	15	-12	i	5	-2	0	-14	-7
CCc1ccc(NC(=O)COc2coc(CN3CCN(c4ccccc4)CC3)cc2=O)cc1	/	-16	i	/	2	-11	-30	/
COc1ccc(NC(=O)C(Cc2ccccc2)n2cccc2)c(OC)c1 (configuration not stated)	4	5	i	4	2	-2	-9	10
O=C(N/N=C\c1cccs1)c1sccc1-n1cccc1	-10	/	i	-6	-1	-1	/	0
Cc1cc(Br)c2c(c1)/C(=C/C(=O)c1cccs1)C(=O)N2	1	9	i	-2	-4	-5	/	-7
CC(C)CNC(=O)[C@@H]1CSC2c3ccccc3C(=O)N21 (some centres not stated)	6	3	i	-1	1	5	-15	0

Not a retest: an excerpt of the list.
SMILES	Env fusion inh	CSC inhib	Rce1 inh	PABP polyA inh	MT1-MMP act inh	MT1-MMP act inh RFP	Yeast UUG start	eIF4H inh	others
CCN(CC)S(=O)(=O)c1ccc(N(C)C)c(NC(=O)CC(NC(C)=O)c2ccccc2)c1 (configuration not stated)	/	-11	i	-22	4	4	-1	-12
COc1cc(NC(=O)c2oc3ccccc3c2C)ccc1NC(=O)c1ccco1	13	/	i	1	-1	-4	14	-3

Returning to the listing; the 5 compounds before the break are reprinted first.
SMILES	Env fusion inh	CSC inhib	Rce1 inh	PABP polyA inh	MT1-MMP act inh	MT1-MMP act inh RFP	Yeast UUG start	eIF4H inh	others
CCc1ccc(NC(=O)COc2coc(CN3CCN(c4ccccc4)CC3)cc2=O)cc1	/	-16	i	/	2	-11	-30	/
COc1ccc(NC(=O)C(Cc2ccccc2)n2cccc2)c(OC)c1 (configuration not stated)	4	5	i	4	2	-2	-9	10
O=C(N/N=C\c1cccs1)c1sccc1-n1cccc1	-10	/	i	-6	-1	-1	/	0
Cc1cc(Br)c2c(c1)/C(=C/C(=O)c1cccs1)C(=O)N2	1	9	i	-2	-4	-5	/	-7
CC(C)CNC(=O)[C@@H]1CSC2c3ccccc3C(=O)N21 (some centres not stated)	6	3	i	-1	1	5	-15	0
C=CCn1cccc(C(=O)Nc2ccc(C)c(C)c2)c1=O	-30	2	i	-1	3	-11	-18	6
CC(C)(C)Cc1nnc(NC(=O)Cc2cccs2)s1	-3	-2	i	7	-6	4	/	22
C#CCNC(=O)C1=C[C@H](c2ccc(C(F)(F)F)cc2)C[C@H](OCCCCO)O1	7[16.7 µM]	-12	i	7	-1	0	-4&0	-7
Cn1cc(C(=O)N/N=C/c2cccs2)c2ccccc21	-114	9	i	11	4	-2	-4	8
COc1ccc(C(=O)CC(=O)C(=O)Nc2ccccc2C(F)(F)F)cc1	-4	3	i	3	0	-5	-18	13
O=C(CSc1nc2scc(-c3ccccc3)c2c(=O)[nH]1)Nc1ccccc1	34	16	i	-4	4	-20	-20	-7
O=C1NN=COc2ccccc21	6	-12	i	-4	2	2	/	1
CC1CCN(CCOc2ccc(OCc3ccccc3)cc2)CC1	/	49	i	-13	-3	2	-5	-2
COc1ccc2c(c1)[n+](=O)c(C(C)=O)c(C)n2[O-]	-102	-14	i	2	4	6	0	6
O=CNc1cc(-c2ccsc2)cn2c(-c3ccccc3)cnc12	-33	/	/	/	-7	-3	-14	/
O=C(N/N=C/c1coc2ccccc2c1=O)c1cn(-c2ccccc2)nc1-c1ccc(F)cc1	/	3	i	-9	-1	0	0	7
COc1ccc(C(=O)NCCc2c[nH]c3ccccc23)cc1	-72	-1	i	-5	3	-1	-23	-6
